Env fusion inh – HIV envelope-mediated fusion inhibition | HeLa-JRFL Env/CEM21 cell fusion, luciferase | inhibition, % at 12.3 µM | actives 1.1% (n = 360,000);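 active means mean replicate inhibition score of at least 50 and every replicate individually at or above 50; inconclusive means only one of the two criteria met; inactive means mean below 50 and not all replicates reaching 50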;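 further: 0% = plate neutral controls and 100% = maraviroc near 300 nM; one replicate is shown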
CSC inhib – blocks cancer stem cells; inhibition, % at 7.5 µM; AID 2717; actives 1.1% (n = 300,000); cancer stem cell-like cells viability, luminescence;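 active means mean at 75% or more and at least half the replicates too; inconclusive means mean and replicates disagree; tested in HMLE shEcad cells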;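 further: 0% = median of negative and 100% = median of positive control wells; the first replicate is given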
PABP FP inh – PABP-poly(A) binding inhibition; P11940; PABP-poly(A) RNA binding, fluorescence polarization; inhibition, % at 35 µM; actives 1% (n = 290,000); AID 2014;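 active means 50% or more with normal probe brightness, or confirmed in later tests; inconclusive means above 50% with abnormal brightness, or retests that disagree; inactive means below 50% or failed in later tests; about a fifth of its hits are not listed in these tables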;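 further: calls also rest on retests at 20 µM and on dose response follow-up; controls were probe without protein and protein plus probe with vehicle; some compounds called inactive have numbers as strong as hits; many hits fall short of the cut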
Target sequence (P11940 whole entry, looked up): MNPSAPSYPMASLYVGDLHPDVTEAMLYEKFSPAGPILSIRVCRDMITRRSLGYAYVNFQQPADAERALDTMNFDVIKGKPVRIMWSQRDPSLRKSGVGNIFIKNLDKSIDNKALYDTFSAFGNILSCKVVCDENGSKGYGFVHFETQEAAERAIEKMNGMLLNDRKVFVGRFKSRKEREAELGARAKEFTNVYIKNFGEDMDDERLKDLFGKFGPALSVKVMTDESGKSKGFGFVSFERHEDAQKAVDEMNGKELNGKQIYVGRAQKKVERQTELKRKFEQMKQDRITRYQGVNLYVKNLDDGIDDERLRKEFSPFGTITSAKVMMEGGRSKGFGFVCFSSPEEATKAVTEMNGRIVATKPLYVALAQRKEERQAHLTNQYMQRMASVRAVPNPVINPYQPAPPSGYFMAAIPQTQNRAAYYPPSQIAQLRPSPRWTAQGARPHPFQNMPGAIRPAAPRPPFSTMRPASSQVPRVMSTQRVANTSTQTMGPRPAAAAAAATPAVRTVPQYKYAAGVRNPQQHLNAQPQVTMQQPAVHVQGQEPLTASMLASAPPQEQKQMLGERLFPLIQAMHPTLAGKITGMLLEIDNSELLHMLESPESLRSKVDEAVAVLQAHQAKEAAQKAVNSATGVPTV
MT1-MMP act inh – MT1-MMP (human) activation inhibition; GFP/RFP ratio change, % at 20 µM; actives 0.061% (n = 360,000); P50281; HT1080 RFP-PRO-GFP cells, GFP/RFP ratio fluorescence, overnight; percent of plate control window, DMSO zero; AID 651647;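 active means GFP/RFP ratio change of at least 30% with cell ATP level not reduced by more than half and red fluorescence within 50% of control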; further: strong numbers were not always called active
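Read-out: GFP/RFP fluorescence ratio; Test system: RFP-PRO-GFP reporter HT1080 cells; Compound dosing: single-point 20 µM compound, 1% DMSO; Times: overnight compound exposure at 37 °C.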
Rce1 inh – blocks yeast Ras-converting enzyme; Q03530; yeast membranes, quenched prenylated peptide cleavage fluorescence; calls only; actives 0.27% (n = 290,000); AID 2563;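 active means fall in fluorescence gain of 50% or more versus controls, with final raw signal at or below 3038400; inconclusive means same 50% fall but final raw signal above 3038400; inactive means fall in fluorescence gain under 50%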;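 further: plate controls were neutral control wells for no effect and wells lacking membranes for full effect; tested at 10 µM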
UUG fidelity – alters start codon recognition fidelity in yeast. S. cerevisiae UUG-firefly luciferase reporter, luminescence/redox ratio. activity score, % at 18.7 µM. actives 0.13% (n = 350,000). AID 602363;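 active means replicate mean at a twofold rise or more, about +100% in these data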;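 further: firefly luciferase made from a UUG start codon reports start codon fidelity; reporter light over untreated wells divided by growth signal over untreated wells; some hits fall short of that in this replicate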
eIF4H inh – inhibitors of RNA binding by human eIF4H; Q15056; eIF4H fluorescence polarization binding assay; inhibition, % at 35 µM; actives 0.94% (n = 290,000); AID 2012;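 active means 50% or more with normal probe brightness, or confirmed in later tests; inconclusive means above 50% with abnormal brightness, or retests that disagree; inactive means below 50% or failed in later tests; about a fifth of its hits are not listed in these tables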;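 further: calls also rest on retests at 20 µM and on dose response follow-up; 0% = protein and probe with vehicle and 100% = probe without protein; strong numbers were not always called active; many hits fall short of the cut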
eIF4H inh retest – further read-out of eIF4H inh, marked with its call; inhibition, %; compound at 20 µM; confirmation average;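 mean of two retest wells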
PABP FP inh retest – recorded beside PABP FP inh, whose call it bears; inhibition, %; compound at 20 µM; confirmation repeats;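 mean of two retest wells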
MT1-MMP act inh RFP – recorded beside MT1-MMP act inh, whose call it bears; RFP signal change, %; measured here: RFP expression control read;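 0 = vehicle wells; hits needed this value within 50% of zero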
The depositor's hits bear a star; i = inactive; ? = inconclusive; · = not tested or not shown. Only part of the results is shown; rates above refer to the full screens.

SMILES	Env fusion inh	CSC inhib	PABP FP inh	MT1-MMP act inh	MT1-MMP act inh RFP	Rce1 inh	UUG fidelity	eIF4H inh	others
CC(=O)NCC(=O)OC(C(=O)c1ccccc1)c1ccc(Cl)cc1 (configuration not stated)	·	-5	-1	-4	0	i	4	-9
Cc1cccc(C)c1NC(=O)NCCSc1snnc1C	-4	-10	3	2	1	i	·	-5
O=C1OCC2=C1C(c1ccc(Cl)cc1)CC(=O)N2c1ccc(F)cc1 (configuration not stated)	18	-1	1	0	5	i	·	-7
COc1ccc(CN(C)C(=O)c2ccc(OCC(=O)Nc3cccc(C(F)(F)F)c3)c(OC)c2)c(OC)c1	76*	9	·	3	-29	i	1	·
O=c1oc2c3c4c(cc2c(C(F)(F)F)c1CCN1CCOCC1)CCCN4CCC3	-23	-6	?	-221	-2	i	·	?
CCSc1nnc(NC(NC(=O)c2ccco2)(C(F)(F)F)C(F)(F)F)s1	·	-4	-6	1	2	i	-14	3
N#CCC(=O)N/N=C/c1cn(Cc2ccc(Cl)c(Cl)c2)c2ccccc12	12	10	1	0	-1	i	-9	12
Cc1cc(C)c(S(=O)(=O)NCC(=O)NCc2ccco2)c(C)c1	-1	-12	4	1	1	i	·	-1
CCOCCOC(=O)C1=C(C)N(C)C(=O)NC1c1cc(Cl)c(O)c(OC)c1 (configuration not stated)	12	3	-12	-2	-1	i	·	0
CN(C)CCN(C(=O)c1ccc2c(c1)CCCC2)c1nc2cc3c(cc2s1)OCCO3	-1	-19	1	3	-1	i	-2	-2
CCOC(=O)c1ccc(NC(=O)CSc2nnc(-c3cccs3)n2CC)cc1	22	8	-4	3	-6	i	13	2
O=C(COc1ccc(Cl)cc1)Nc1ccc2[nH]ncc2c1	8	-12	8	-5	-5	i	-7	-9
COc1ccc(/C=C2\SC(=S)N(C(Cc3ccccc3)C(=O)O)C2=O)cc1 (configuration not stated)	-8	·	-8	-5	0	i	·	-1
O=C(CSc1nc2cc(Cl)ccc2o1)N1CCOCC1	·	-9	-5	4	4	·	9	-3
Cc1cccc(NC(=S)N(CCCN2CCCC2)Cc2cccn2Cc2ccc(Cl)cc2)c1	8	60	8	0	-5	i	-26	5
N#C/C(=C\c1c(N2CCN(c3ccccc3)CC2)nc2ccccn2c1=O)C(N)=O	9	-10	11	-4	1	i	1	22
CN1C[C@@H]2C[C@@H](C3=Cc4cc(Cl)ccc4OC3)N3CCC[C@@]23C1=O	8	-2	-1	7	-4	i	1	-1
Cc1cccc(NS(=O)(=O)c2nnc(NC(=O)c3ccccc3F)s2)c1	·	1	8	0	-2	i	-18	-1
CCc1noc(C)c1C(=O)NCCN1C(=O)S/C(=C\c2ccc(OC)cc2)C1=O	-16	3	·	1	-8	i	-11	·
O=C(CS(=O)(=O)c1ccccc1)c1ccc2c(c1)OCCO2	·	-5	4	2	0	i	2	-11
CC1(OC(=O)C2CCCC2)C(=O)C=C2C=C(c3ccsc3)N(c3ccccc3)C=C2C1=O (configuration not stated)	26	-12	?	-1	6	i	-14	?
Cc1cc(NC(=O)CCC(=O)N(CC(=O)NCC2CCCO2)c2ccc(C(C)C)cc2)no1 (configuration not stated)	2	0	4	2	-1	i	9	-5
Cc1noc(C)c1CSCC(=O)OCC(=O)Nc1sccc1C#N	-53	-7	74*	-2	5	i	-17	58*
Cc1nnc(CN(C)C(=O)c2cc(COc3ccc(F)cc3Cl)on2)o1	-105	-8	-1	-3	-3	i	-30	-9
Fc1ccc(C2NCCn3cccc32)cc1 (configuration not stated)	·	-11	7	-2	5	i	-5	4

Compounds shown so far that contain a cyano group:
SMILES	Env fusion inh	CSC inhib	PABP FP inh	MT1-MMP act inh	MT1-MMP act inh RFP	Rce1 inh	UUG fidelity	eIF4H inh	others
N#CCC(=O)N/N=C/c1cn(Cc2ccc(Cl)c(Cl)c2)c2ccccc12	12	10	1	0	-1	i	-9	12
N#C/C(=C\c1c(N2CCN(c3ccccc3)CC2)nc2ccccn2c1=O)C(N)=O	9	-10	11	-4	1	i	1	22
Cc1noc(C)c1CSCC(=O)OCC(=O)Nc1sccc1C#N	-53	-7	74*	-2	5	i	-17	58*

Returning to the listing with the three entries that preceded the break.
SMILES	Env fusion inh	CSC inhib	PABP FP inh	MT1-MMP act inh	MT1-MMP act inh RFP	Rce1 inh	UUG fidelity	eIF4H inh	others
Cc1noc(C)c1CSCC(=O)OCC(=O)Nc1sccc1C#N	-53	-7	74*	-2	5	i	-17	58*
Cc1nnc(CN(C)C(=O)c2cc(COc3ccc(F)cc3Cl)on2)o1	-105	-8	-1	-3	-3	i	-30	-9
Fc1ccc(C2NCCn3cccc32)cc1 (configuration not stated)	·	-11	7	-2	5	i	-5	4
CCN(Cc1ccc(OC)c(F)c1)C(=O)c1oc2ccccc2c1COC	29	-2	-6	-8	-6	i	-3	-2
O=C(CCNC(=O)c1ccc(Br)cc1)NCc1ccccc1F	2	2	·	-1	4	·	·	·
COc1ccc(CCNC(=O)[C@H](CC(C)C)NC(=O)N2CCn3c2nc2ccccc23)cc1OC	15	6	-6	2	0	i	-11	-11
Cc1nc(C)c(-c2ccc(SCc3ccccc3F)nn2)s1	-19	15	2	2	-6	i	-5	-2
COc1ccc(NC(=O)C2(C)Cc3c(-c4cccc(C(F)(F)F)c4)ccnc3O2)cn1 (configuration not stated)	-15	·	·	7	-4	·	-23	·
O=C1c2cccnc2C(=O)N1c1cccc(-c2nc3ccccc3o2)c1	·	-1	-4	2	5	i	-16	0
CCOC(=O)c1nc(C(=O)NCc2ccc(C)cc2)nc2ccccc12	-2	-9	·	1	2	·	-3	·
O=C(Cc1cccs1)Nc1ccccc1F	19	-1	-16	0	2	i	-1	-3
O=c1cc(CN2CCCCC2)nc(C2CC2)[nH]1	28	-4	8	0	4	i	-23	6
COCCOC(=O)c1c(C)oc2ccc(O)c(CN3CCC(C)CC3)c12	2	0	-5	0	4	i	-13	2
CCn1cc(CNCc2c(C(=O)N3CCCCC3)nc3c(C)cccn23)cn1	-5	-4	0	2	5	i	·	-6
CCn1cc(C(=O)NCC(=O)OC)c2cc(OC)c(OC)cc2c1=O	-4	4	-11	4	11	i	-16	-12
Cc1cccc(CCNS(=O)(=O)c2ccc3c(c2)NC(=O)CO3)c1	-7	·	0	2	3	i	-20	-7
CN(C)[C@@H]1CCC[C@@H]1OC(=O)C(c1ccccc1)c1ccccc1	-10	-6	-16	0	5	i	-2	-5
CCCCC1CC1C(=O)Nc1ncc2c(n1)CC(C)(C)CC2=O (configuration not stated)	·	·	-1	2	3	i	·	0
Cc1ccccc1OCC(O)Cn1c(SC(C)C)nc2c1c(=O)[nH]c(=O)n2C (configuration not stated)	-26	-5	-5	2	1	i	-7	-6
COc1ccc(NC(=O)CSc2ccc(-c3ccco3)nn2)cc1OC	7	3	2	8	4	i	1	5
Cc1nc2c(cc1N)nc(C)n2Cc1ccccc1	-8	1	0	-3	-2	?	-3	3
C#CCOc1ccc(/C=C2/C(=O)N(c3ccc(S(N)(=O)=O)cc3)N=C2C)cc1OC	-3	·	·	2	3	·	1	·
COc1ccc2c(CC(=O)N3CCN(S(=O)(=O)c4ccc(F)cc4)CC3)coc2c1	-1	·	·	-6	0	·	2	·
Cc1ccc(CNC(=O)C2CCN(S(=O)(=O)c3ccc4nc5c(c(C(=O)O)c4c3)CC(C)CC5)CC2)cc1 (configuration not stated)	4	0	28	-3	3	i	-8	-4
Cc1cccc(N(C(=O)c2snc(C(N)=O)c2N)C(C(=O)NCc2ccccc2)c2ccncc2)c1 (configuration not stated)	-7	1	-10	-9	-5	i	-9	-8
CCOc1ccc(CCNC(=O)CN(C)S(=O)(=O)c2cccc3nsnc23)cc1OCC	23	·	-2	3	0	i	6	2
NS(=O)(=O)c1cccc(NC(=S)NCc2ccccc2)c1	-5	·	26	4	1	i	·	4
O=C(CN1C(=O)N/C(=C\c2ccccc2OCc2ccc(C(=O)O)cc2)C1=O)Nc1ccc(F)cc1	10	·	7	3	4	i	-38	0
Next section
SMILES	Env fusion inh	CSC inhib	PABP FP inh	MT1-MMP act inh	MT1-MMP act inh RFP	Rce1 inh	UUG fidelity	eIF4H inh	others
CCn1cc(CNC(=O)c2cc([N+](=O)[O-])c(C)c([N+](=O)[O-])c2)cn1	·	-2	72	0	2	i	·	-1	eIF4H inh retest=3;PABP FP inh retest=1
CC(=O)OCCCCCCCCCCC[N+]1(C)CCCCC1	5	29	64*	-1	-3	i	·	3
O=C(Nc1ccc(SC(F)F)cc1)c1ccc2nccnc2c1	19	48	3	4	-18	i	-19	-10
O=C(Nc1cc(S(=O)(=O)N2CCOCC2)ccc1O)c1ccc2c(c1)S(=O)(=O)c1ccccc1C2=O	-5	5	-10	5	0	i	·	-6
O=C(CCc1nc2ccccc2[nH]1)Nc1ccc2c(c1)OCCO2	1	-22	10	2	3	i	-8	-1
Fc1ccc(-c2ccnn2-c2ccccc2)cc1	-2	-8	-1	-1	0	i	-18	-8

An excerpt from above in order of formula weight, rising.
SMILES	Env fusion inh	CSC inhib	PABP FP inh	MT1-MMP act inh	MT1-MMP act inh RFP	Rce1 inh	UUG fidelity	eIF4H inh	others
Fc1ccc(-c2ccnn2-c2ccccc2)cc1	-2	-8	-1	-1	0	i	-18	-8
O=C(CCc1nc2ccccc2[nH]1)Nc1ccc2c(c1)OCCO2	1	-22	10	2	3	i	-8	-1
O=C(Nc1ccc(SC(F)F)cc1)c1ccc2nccnc2c1	19	48	3	4	-18	i	-19	-10

Screens as filed in PubChem BioAssay.
